Menin-MLL FL inh: qHTS Assay for Inhibitors Targeting the Menin-MLL Interaction in MLL Related Leukemias: Competition With Fluorescein Labeled MLL-derived Peptide. Fluorescence polarization, fluorescein-MLL peptide displacement from menin. 290,000 tested, under 10 active. FP activity change, % at 61.4 µM; inconclusive = falling polarisation curve, or a change in total fluorescence; inactive = total fluorescence flat and polarisation flat or rising; no compound was filed as active; the % refers to the polarisation; negative = inhibition;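 also: % of control where 0% means no effect; inhibitors lower the polarisation; unlabelled MLL peptide was the positive control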
ClpP mod: qHTS Assay for Activators of ClpP; ATP-dependent Clp protease proteolytic subunit (Bacillus subtilis (strain 168)), P80244; purified B. subtilis ClpP, FRET peptide cleavage, 20 min; Potency, µM (highest dose often 57.5 µM), for inactives: top-dose activity change, negative = active; 1.9% of 340,000 active; AID 651965, 2013; active = well fitted falling curve with a large enough effect; inconclusive = small, poorly fitted or top-dose-only effect; inactive = no such curve, though single readings can be large or run the other way; also: potency is read from the fitted curve at half-maximal effect; the source files actives as falling curves though it sought activators and does not explain the sign; nearly all actives have a fitted effect of over 65% in size; many hits overshoot -100%
Target sequence (P80244 whole entry, looked up): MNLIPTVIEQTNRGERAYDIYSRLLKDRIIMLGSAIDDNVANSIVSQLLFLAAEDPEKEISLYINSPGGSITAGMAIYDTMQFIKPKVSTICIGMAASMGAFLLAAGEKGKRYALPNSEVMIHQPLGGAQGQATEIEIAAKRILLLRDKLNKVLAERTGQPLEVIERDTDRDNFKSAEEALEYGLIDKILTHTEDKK
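ClpP 10 microg/mL final, pH 8 Tris/KCl buffer with BSA, glycerol, Tween-20; compound pinned in; FRET-FV substrate; RT 20 min; Ex320/Em430; ΔFRET vs ADEP 5.8 microM, DMSO, no enzyme.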
PINK1 modulator: A Quantitative High throughput Screen to Identify Chemical Modulators of PINK1 Expression | PINK1 immunofluorescence, high-content cytometry, 24 h | Potency, µM (series often up to 76.6 µM), for the others: at the highest dose activation (PINK1 increase), usual class: activators | 0.2% of 410,000 active; active = well fitted activation curve with a large enough effect; inconclusive = small, poorly fitted or top-dose-only effect; inactive = flat fitted curve, though single readings scatter; cell line not stated here;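 also: potency is read from the fitted curve at half-maximal effect; % of control where 0% means no effect; nearly all actives have a fitted effect of over 65% in size; a mitochondrial uncoupler was the plate control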
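Fluorescence from anti-PINK1 antibody, together with nuclear and cell stains, was scanned on a laser-scanning cytometer. Before staining, stable-line cells were incubated 24 hours with compounds at 5 concentrations; primary antibody 12 h at 10 degrees C.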
Sfp inh: qHTS Assay for Inhibitors of Bacillus subtilis Sfp phosphopantetheinyl transferase (PPTase); Biochemical Sfp PPTase activity, qHTS; Potency, µM, for the others: max response, negative = inhibition, most hits filed as inhibitors; AID 1490, 2009; 3.5% of 310,000 active; active = well fitted inhibition curve with a large enough effect; inconclusive = small, poorly fitted or top-dose-only effect, or another doubt; inactive = no such curve, though single readings can be large or run the other way;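 also: the enzyme is Sfp with the accession as filed and its product quenches rhodamine fluorescence; potency is read from the fitted curve at half-maximal effect; 0% = enzyme reaction without inhibitor and -100% = no enzyme wells; top concentration of the series not given in the record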
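Fluorescence-quenching assay with 15 nM Sfp, 5 uM rhodamine-CoA and 12.5 uM BHQ-2-labelled ybbR peptide in pH 7.6 Hepes/MgCl2 buffer. Enzyme was pre-incubated with compound for 15 min at room temperature. Rate was taken from the 30-min fluorescence change (525/598 nm).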
D2 ag: Beta-Arrestin HTS for Positive Allosteric Modulators of the Human D2 Dopamine Receptor: Agonists | D(2) dopamine receptor (Homo sapiens), P14416 | DiscoveRx PathHunter D2 beta-arrestin, luminescence, 90 min; 100% = 57 uM dopamine signal | activation, % (no concentration beside the values) | 0.084% of 360,000 active | AID 624465, 2012; in the data active = activation above about 40%; inconclusive = about 15% to 40%; inactive = below about 15%; also: compound concentration not given in the record; the text of the record calls up to 30% inactive
Target sequence (P14416 whole entry, looked up): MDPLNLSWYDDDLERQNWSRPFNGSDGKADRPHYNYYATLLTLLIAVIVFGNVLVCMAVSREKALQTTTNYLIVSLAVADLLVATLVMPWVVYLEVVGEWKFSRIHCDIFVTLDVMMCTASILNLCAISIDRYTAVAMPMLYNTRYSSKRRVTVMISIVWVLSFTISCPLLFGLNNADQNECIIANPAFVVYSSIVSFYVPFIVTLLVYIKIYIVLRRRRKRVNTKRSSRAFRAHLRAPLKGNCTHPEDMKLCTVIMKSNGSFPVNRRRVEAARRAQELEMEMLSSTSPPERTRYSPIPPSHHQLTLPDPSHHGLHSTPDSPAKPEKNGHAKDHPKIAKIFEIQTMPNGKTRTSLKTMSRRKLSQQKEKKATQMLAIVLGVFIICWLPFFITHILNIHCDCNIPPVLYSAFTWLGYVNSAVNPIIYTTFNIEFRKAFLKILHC
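Agonist mode: compounds alone added to overnight-plated D2 PathHunter cells for 90 min at 37 C, with 57 uM final dopamine (EC100) defining full response. Beta-arrestin recruitment detected by chemiluminescent reagent, read after 1 h at ambient temperature.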
gsp antagonist: qHTS for Antagonists of gsp, the Etiologic Mutation Responsible for Fibrous Dysplasia/McCune-Albright Syndrome: qHTS | gsp-mutant cells, cAMP HTRF, 30 min; control for the full effect not named in the record | Potency, µM (series often up to 76.9 µM), for inactives: at the highest dose activity change, negative = inhibition, hits mostly inhibitors | 0.4% of 340,000 active | AID 624288, 2012; active = falling curve of any shape with a large fitted effect; inconclusive = falling curve, mostly with a smaller effect; inactive = flat or rising curve; cell line not stated here;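 also: intracellular cAMP measured with PDE inhibitor Ro 20-1724 present during compound exposure; potency is read from the fitted curve at half-maximal effect; % is scaled to controls: 0 for no effect and ±100 for the full control effect; nearly all actives have a fitted effect of over 65% in size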
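HTRF cAMP measurement after 30 min RT detection following 30 min, 37C compound treatment alongside […] (added as 300 uM solution) in G418-selected cells seeded at 2000/well and grown 16–24 h.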
gsp ag: qHTS for Agonist of gsp, the Etiologic Mutation Responsible for Fibrous Dysplasia/McCune-Albright Syndrome: qHTS; gsp mutant cells, cAMP HTRF, 30 min; control for the full effect not named in the record; Potency, µM (top dose mostly 76.9 µM), for the others: at the top dose activation (cAMP increase), usual class: activators; 0.13% of 340,000 active; AID 624287, 2012; active = well fitted activation curve with a large enough effect; inconclusive = small, poorly fitted or top-dose-only effect, or another doubt; inactive = no such curve, though single readings can be large or run the other way; cell line not stated here;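 also: phosphodiesterase inhibitor Ro 20-1724 added with compounds to block cAMP breakdown; potency is read from the fitted curve at half-maximal effect; nearly all actives have a fitted effect of over 60% in size; about a fifth of the inactives were tested at one dose only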
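Cells stably selected in G418 were plated at 2000/well, grown 16-24 hr, then given compounds in DMSO with the PDE inhibitor […] (300 uM solution added) for 30 min at 37C; cAMP was read by HTRF.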
* hit, by the source's call; ? = inconclusive; / = not tested or not shown; [ ] = another dose, or the depositor's remark.

SMILES | Menin-MLL FL inh | ClpP mod | PINK1 modulator | Sfp inh | D2 ag | gsp antagonist | gsp ag
COc1ccc(N2C(=O)CC(C3CCCO3)C2=O)cc1 (stereo not drawn) | -5.0 | -1.2% | 1.7% | 7% | -2.8 | -1% | 19%[15.4 µM]
Cc1cccc(NCc2nc(SCC(=O)Nc3ccccc3)n[nH]2)c1 | 0.6 | -4.5% | -0.3% | 32%[activator] | 4.1 | 2% | -23%[15.4 µM]
Cc1cccc(-n2ccnc2SCC(=O)Nc2cccc(S(=O)(=O)NC3=NCCC3)c2)c1C | / | 0.8% | 0.5% | / | -2.9 | -5% | -17%
CCOC(=O)N1C=CC(C)=C[C@@H]2[C@@H](N3C(=O)c4ccccc4C3=O)C(=O)N21 | 0.3 | -5.7% | 5.8% | 23% | -2.1 | 7% | 8%
Cc1cccc(NC(=O)C2CCN(c3nc(C)cc(C)n3)CC2)c1 | 3.0 | -24% | 7.9% | 0% | -5.6 | 10% | -7%
O=C1NC(=S)N/C1=C\c1cccnc1 | 0.4 | -1.1% | -0.4% | 4% | 1.3 | -14% | 0%
Cc1c(Cl)cccc1NC(=O)CN1CCN(CCN=CC2=C(O)CC(c3ccccc3)CC2=O)CC1 (stereo not drawn) | 5.7 | / | -1.3% | 9% | -9.4 | -9% | -9%[15.4 µM]
Cc1nnc(SCC(=O)NC2CCCCC2)n1N | / | -2.4% | -2.2% | / | 2.0 | -12% | 3%
O=C(NNc1c(Cl)cccc1Cl)c1ccno1 | 1.0 | -0.1% | 0.1% | 5% | -4.3 | 4% | ?
COc1ccc(S(=O)(=O)N2CCCCC2)cc1C(=O)N1CCCC1 | / | 0.1% | -0.1% | 13% | -3.5 | 7% | -2%[15.4 µM]
O=C(CSc1nc2c(c(=O)n1-c1ccccc1)SCC2)N1CCOCC1 | -3.0 | -3.5% | 0.6% | -6% | 0.9 | -4% | -66%[inhibitor]
O=C(COC(=O)c1ccc(O)cc1O)NC(=O)c1ccccc1 | / | / | 6.0% | / | 0.2 | -7% | -11%[15.4 µM]
Nc1cc[n+](CC(=O)c2ccc3c(c2)OCCO3)cc1 | 5.4 | -8.2% | ? | 15% | -3.0 | -1% | 10%
N#CCCN(Cc1cccnc1)S(=O)(=O)c1ccc2ccccc2c1 | / | -3.7% | 0.1% | / | -0.2 | -6% | -28%
COc1ccc(NC(=O)c2cc3c(=O)n4ccccc4nc3n2C)c(OC)c1 | 1.7 | / | 0.0% | 12% | -0.5 | -3% | ?
NC(=O)c1ccccc1NC(=O)Nc1ccc(F)c(Cl)c1 | 1.4 | -16% | -2.2% | 26% | -1.3 | -8% | ?
Cc1ccc(CSc2nnc(C)c(=O)n2N)cc1 | -0.5 | 5.3% | 1.5% | 13% | 0.5 | 4% | -94%[inhibitor]
CC(=O)c1ccc(N2CCN(C(=O)c3cc(-c4ccc5c(c4)OCO5)nc4ccccc34)CC2)cc1 | -1.9 | 32µM* | -2.8% | 3% | -0.4 | -1% | -11%
CN(Cc1c(F)cccc1Cl)C(=O)c1ccc2ccccc2n1 | -0.9 | / | 0.2% | 0% | -1.4 | -5% | 0%
CC1(C(=O)NCc2ccccc2Br)CCN1Cc1csc2ccccc12 (stereo not drawn) | / | 0.0% | ? | / | 2.8 | / | /
CCCCOC(=O)Cc1c(O)c2ccccc2[nH]c1=O | 2.7 | ? | 0.5% | ? | -5.8 | -26%[15.4 µM] | 0%
O=C(c1ccc(C(F)(F)F)cc1)N(CCCn1ccnc1)C(c1ccccn1)c1nc2ccccc2[nH]1 (stereo not drawn) | / | -8.3% | 1.5% | / | -1.3 | / | /
CCOC(=O)c1c(NC(=O)C2Cc3ccccc3C(=O)O2)sc2c1CCCC2 (stereo not drawn) | / | / | 0.5% | / | -0.6 | -12% | -16%[15.4 µM]
COc1ccc(OC)c(NC(=O)CS(=O)(=O)c2ccccc2)c1 | -0.1 | 0.5% | -1.5%[38.3 µM] | 12% | 1.2 | -9% | -1%
CN(C)c1ccc(N2C(=NC(=O)CCc3ccccc3)SC3CS(=O)(=O)CC32)cc1 (stereo not drawn) | / | -3.6% | -1.7% | -2% | -1.0 | -1% | 4%
CCN(CC)c1ccc(N2C(=NC(=O)C3CCCO3)SC3CS(=O)(=O)CC32)cc1 (stereo not drawn) | / | -0.2% | -1.1% | 6% | -4.3 | -8% | ?
O=C(CCN1C(=O)c2ccccc2C1=O)Nc1cccnc1 | 6.2 | -2.0% | 2.0%[38.3 µM] | 15% | 0.7 | 6% | -2%
CC1(C)CC2(C)Nc3ccccc3N2C(=S)N1 (stereo not drawn) | 0.8 | 1.0% | 3.5% | -17% | 4.8 | -2% | 16%
O=C(OCC(=O)c1cccs1)c1ccc(NC(=O)c2ccco2)cc1 | 1.5 | -0.9% | 2.1%[38.3 µM] | 1% | -2.2 | -21% | -7%
C=CCn1c(CNc2ccccc2)nnc1SCC(=O)N/N=C/c1ccc(O)cc1O | 1.9 | -2.1% | -1.6% | 22% | -0.9 | 9% | 1%
O=C(NCc1ccc2c(c1)OCO2)C1CC(=O)N(CCc2ccccc2)C1 (stereo not drawn) | 0.4 | -1.2% | -0.1% | 19% | 1.9 | -5% | 4%
CC(C)CCn1cnc2c(sc3nc4c(cc32)CSC(C)(C)C4)c1=O | 0.1 | -6.8% | 7.1% | 19% | -4.2 | 5% | -4%
Cc1c(Cc2ccccc2)c(=O)oc2c(C)c(OCC(=O)NCc3ccccn3)ccc12 | 1.9 | 3.7% | 9.1% | -20% | -4.2 | -14% | -5%
O=C1Cn2nnc(-c3ccccc3)c2C2c3ccccc3CCN12 (stereo not drawn) | / | 0.2% | 1.3% | / | 5.3 | / | /
Cc1cccc(Cc2c(C)nc3nc(SCC(=O)NCc4ccco4)nn3c2C)c1 | 0.8 | 0.0% | 9.3% | 45µM* | -2.8 | 6% | -10%
CCn1cc(C(=O)O)c(=O)c2cnc(N3CCN(C(=S)NC(=O)c4ccccc4Cl)CC3)nc21 | 0.8 | -2.5% | -0.5% | 8% | -6.3 | -15% | -25%
COc1cccc2cc(C(=O)Nc3ccccc3C)/c(=N/NS(=O)(=O)c3ccccc3)oc12 | -1.2 | 1.8% | -0.2% | 21% | 2.5 | 4% | -81%[inhibitor]
O=C1c2cccnc2Nc2ccccc2N1CCCF | 1.5 | 0.8% | -2.2% | -4% | 0.9 | 6% | 15%
COc1ccc(C2CC(=O)Nc3cc(OC)c(OC)cc32)cc1Br (stereo not drawn) | 1.7 | 0.9% | 3.0% | -4% | -3.2 | -8% | 9%
CCOC(=O)N1CCC(NC(=O)c2cnn3ccccc23)CC1 | 3.2 | 3.7% | -0.7% | 17% | -30 | 2% | 31%
O=C(O)/C=C/c1ccc2noc(-c3ccccc3)c2c1 | 7.0 | 0.6% | -1.1% | 50µM* | -0.5 | -17% | ?
CCCOc1cccc(C(=O)N(Cc2cccs2)C2CCS(=O)(=O)C2)c1 (stereo not drawn) | 0.0 | -0.9% | 0.4% | 14% | 3.1 | -26% | -11%
O=C(CN1C(=O)COc2ccc(Cl)cc21)N1CCOCC1 | 5.7 | 1.1% | 1.8% | 10% | 0.6 | -4% | 9%
Cc1cc(C)cc(NS(=O)(=O)c2csc(C(N)=O)c2)c1 | -2.2 | / | 2.6% | 7% | -2.0 | -2% | 6%
CCOC(=O)C1CCCN(C(=O)c2cn(C)c(=O)c3cc(OC)c(OC)cc23)C1 (stereo not drawn) | 1.5 | -12% | 3.5% | -21% | -2.9 | 3% | -53%
Cc1nnc(SCC(=O)Nc2ncc(Cc3ccc(F)cc3)s2)n1N | 0.4 | 3.2% | 7.5% | 5% | -3.7 | 5% | -8%
CC(C)c1ccc2c(c1)C(N1CCNCC1)Cc1ccc(F)cc1S2 (stereo not drawn) | / | / | -1.7% | / | -5.7 | 16% | -2%
Cc1ccc(/C=C2/SC(=O)NC2=S)o1 | ? | / | -3.0% | 22µM* | 5.1 | 13% | ?
CN(C)S(=O)(=O)c1ccc2nnn(OCC(=O)NC34CC5CC(CC(C5)C3)C4)c2c1 | 0.0 | 1.5% | 3.3% | 1% | -1.0 | 5% | -1%
CCOC(=O)c1c(C)oc2cc(Br)c(OC)cc12 | 3.2 | 0.1% | -1.9% | 11% | -0.3 | -3% | -28%
C=CCN(CC=C)S(=O)(=O)c1ccc(NC(=S)NC(=O)Cc2ccc(OC)cc2)cc1 | 3.7 | -2.2% | -3.8%[38.3 µM] | 27% | -3.0 | 10% | -1%
CC(=O)N1CCc2cc(S(=O)(=O)CCC(=O)N(C)c3cc(C)ccc3C)ccc21 | -6.6 | 1.2% | -1.3% | 3% | -1.7 | 1% | -21%
CCCC(=O)N(CCN1CCOCC1)c1nc2c(OCC)cccc2s1 | -0.7 | -1.5% | 1.8% | 0% | 0.8 | ? | 7%
COc1ccc(/C=N/NC(=O)CSCc2ccc([N+](=O)[O-])cc2)cc1OC | -0.5 | 0.6% | 0.5% | 21% | 2.6 | 7% | -15%
CSc1ccccc1NC(=O)CN(C)CC(=O)c1c(C)[nH]c2ccccc12 | / | 0.6% | 4.3% | / | -5.2 | 2% | 17%
COc1ccc(Nc2nc(N)nc(CN3CCc4ccccc4C3)n2)cc1 | 2.1 | -2.0% | 7.7% | 15% | 0.6 | 8% | 1%
Cc1ccccc1C(=O)O/N=C1\CCS(=O)(=O)c2sccc21 | 2.2 | -4.8% | 17% | 22% | -0.9 | -16% | 0%
